# High-throughput results (PubChem BioAssay)
# KCNQ2 enhance: enhances the rat KCNQ2 potassium channel; O88943; CHO-K1 KCNQ2, FluxOR thallium flux fluorescence; hits give high values; B-score at 10 µM; 310,000 tested, 0.54% active; AID 2239;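 active = fluorescence ratio B-score at least 3 SD of library B-scores, with initial fluorescence B-score within 3 SD, cut at about 5.3 in these data; same plate scores as AID 2156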;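 note: B-score of peak minus minimum over baseline fluorescence ratio after K+ and Tl+ stimulus; positive B-score means potentiation of KCNQ2 with more thallium influx and brighter signal; only the inactives scoring about 0 or higher are listed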
# Target sequence (O88943 whole entry, looked up): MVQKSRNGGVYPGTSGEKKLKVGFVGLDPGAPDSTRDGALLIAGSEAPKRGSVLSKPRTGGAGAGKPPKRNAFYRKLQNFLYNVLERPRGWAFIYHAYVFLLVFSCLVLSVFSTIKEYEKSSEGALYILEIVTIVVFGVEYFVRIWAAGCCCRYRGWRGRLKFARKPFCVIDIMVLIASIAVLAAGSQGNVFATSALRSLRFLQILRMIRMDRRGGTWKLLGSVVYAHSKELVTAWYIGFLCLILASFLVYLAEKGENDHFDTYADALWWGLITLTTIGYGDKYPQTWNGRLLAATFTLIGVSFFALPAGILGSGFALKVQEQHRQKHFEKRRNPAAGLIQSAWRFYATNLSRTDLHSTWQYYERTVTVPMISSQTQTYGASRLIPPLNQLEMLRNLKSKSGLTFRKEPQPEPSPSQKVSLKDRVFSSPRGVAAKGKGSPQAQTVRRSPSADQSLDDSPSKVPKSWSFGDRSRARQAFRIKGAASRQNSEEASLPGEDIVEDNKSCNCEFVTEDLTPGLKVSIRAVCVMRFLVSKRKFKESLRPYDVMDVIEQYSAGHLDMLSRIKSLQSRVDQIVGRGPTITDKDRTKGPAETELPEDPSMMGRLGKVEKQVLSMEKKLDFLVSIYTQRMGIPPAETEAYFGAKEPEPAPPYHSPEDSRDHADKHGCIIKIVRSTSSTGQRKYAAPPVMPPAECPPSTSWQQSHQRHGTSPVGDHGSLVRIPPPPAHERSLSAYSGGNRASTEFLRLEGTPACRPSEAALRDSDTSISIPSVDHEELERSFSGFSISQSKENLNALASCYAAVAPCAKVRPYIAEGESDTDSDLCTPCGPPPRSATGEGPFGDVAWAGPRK
# KCNQ2 enhance baseline: second read-out of KCNQ2 enhance, no call of its own (marks repeat the call); B-score; compound at 10 µM; measured here: initial fluorescence intensity artifact check;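 brightness before thallium and not channel activity; 0 = typical well and far values either way flag optical interference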
# * marks the source's active call; other numbers are inactive results.
KCNQ2 enhance	KCNQ2 enhance baseline	Molecule
0.78	0.41	O=C(CC1(O)C(=O)N(C/C=C/c2ccccc2)c2ccccc21)c1ccccn1 (stereo not drawn)
0.36	2.06	Cc1cc(NC(=O)CCC(=O)N(CC(=O)NCC2CCCO2)c2ccc(C)c(C)c2)no1 (stereo not drawn)
1.52	-1.95	COC(=O)c1cccnc1NC(=S)NNC(=O)c1ccccc1
0.21	-0.3	O=c1[nH]c(/C=C2\C=Nc3ccccc32)c(O)n1Cc1ccccc1F
1.09	0.03	O=C(Nc1ccc(S(=O)(=O)N2CCOCC2)cc1)c1cc(S(=O)(=O)N2CCOCC2)ccc1Cl
0.27	1.55	O=C(COc1ccccc1O)NCCN1CCOCC1
0.76	-1.1	COc1cc(/C=N/NC(=O)c2ccccc2O)ccc1OC(=O)CC1SC(=O)NC1=O (stereo not drawn)
1.1	-0.6	CCn1c(=O)cc(OCC(=O)Nc2ccc(OC)c(OC)c2)c2ccccc21
0.46	-1.17	O=C(CSc1nccn(-c2ccc(F)c(F)c2)c1=O)NC1CCCC1
0.28	0.04	COC(=O)C1=C(C)N(C)C(=O)NC1c1c(O)ccc2ccccc12 (stereo not drawn)
0.74	1.18	COCC(=O)Nc1ccc(F)cc1
1.04	0.2	CN1CCN(C(=O)c2cc([N+](=O)[O-])cc([N+](=O)[O-])c2)CC1
1.71	-0.02	COc1cc(NC(=O)c2ccccc2[N+](=O)[O-])ccc1NC(=O)c1cc2ccccc2o1
0.03	0	CC1=CC(c2ccc(Cl)cc2)n2ncnc2N1 (stereo not drawn)
0.03	-1.13	O=C(CC(=O)c1ccccc1)Nc1cccnc1Cl
0.01	-2.33	CCS(=O)(=O)N1CCN(c2ccc([N+](=O)[O-])c(NC(C)c3ccccc3)c2)CC1 (stereo not drawn)
0.16	1.41	CCCc1ccc(OCc2ccc(C(=O)O)o2)c(OC)c1
0.84	-0.55	COc1ccc2c(c1OC)C(=O)N(c1ccc(OCc3ccccc3)cc1)C2=O
0.34	0	CC(=O)c1ccc(NC(=O)c2cnn3c(C(F)F)cc(C4CC4)nc23)cc1
1.11	0.57	COc1cc2c(cc1O)C(Cc1ccc(O)cc1)NCC2 (stereo not drawn)
0.23	0.54	O=C(c1ccccc1)n1c(=O)cc[nH]c1=O
1.35	-0.53	CCOCCn1c(CN2CCN(C)CC2)nc2c1c(=O)n(C)c(=O)n2C
0.12	-1.72	COc1ccc(-c2ccc(C#N)c(SCC(=O)NCCc3ccccc3)n2)cc1OC
0.81	0.44	Fc1ccccc1Cc1noc(CN2CCC(OCc3cccnc3)CC2)n1
1.33	0.42	CCOC(=O)c1ccc(COC(=O)CCc2nc3ccccc3[nH]c2=O)o1

# Looked up by compound from above:
KCNQ2 enhance	KCNQ2 enhance baseline	Molecule
0.21	-0.3	O=c1[nH]c(/C=C2\C=Nc3ccccc32)c(O)n1Cc1ccccc1F
0.84	-0.55	COc1ccc2c(c1OC)C(=O)N(c1ccc(OCc3ccccc3)cc1)C2=O
1.35	-0.53	CCOCCn1c(CN2CCN(C)CC2)nc2c1c(=O)n(C)c(=O)n2C
0.16	1.41	CCCc1ccc(OCc2ccc(C(=O)O)o2)c(OC)c1

# (list continues)
KCNQ2 enhance	KCNQ2 enhance baseline	Molecule
0.63	1.76	CCCN1CN=C(NS(=O)(=O)c2ccc(C)cc2)NC1
1.06	0.02	CC(C)Cc1nnc(NC(=O)CSc2nc(O)c(Cc3ccccc3)c(=O)[nH]2)s1
0.06	0.43	Cc1cc2c(cc1C)NC1(C(=O)Nc3ccccc31)C1=C(CC(C)(C)CC1=O)N2 (stereo not drawn)
1.43	-0.16	Cc1nn(-c2ccc(F)cc2)c(C)c1/C=C/C(=O)N1CCNC(=O)C1
1.41	-0.05	COc1ccc(C(=O)NC(=S)N(C)C2CCCCC2)cc1
0.8	-0.32	CC(=O)c1cccc(NC(=O)C2CCCN2S(=O)(=O)c2cccc3nsnc23)c1 (stereo not drawn)
1.27	0.63	Nc1nc(Nc2ccccc2F)nc(NC2CCCCC2)c1[N+](=O)[O-]
1.43	-0.53	Fc1cc(Br)ccc1COc1ccc(-c2nnco2)cc1
0.03	-0.59	CCC(=O)Nc1c(C#N)c2nc3ccccc3nc2n1C1CCCCC1
0.49	-1.22	CCN(C(=O)CSc1cc(C)c2cccc(C)c2n1)C1CCS(=O)(=O)C1 (stereo not drawn)
0.68	-0.55	COc1ccc(CN2CCN(S(=O)(=O)c3ccccc3)CC2)c(OC)c1OC
1.05	-1.61	CCc1n[nH]c(=S)n1/N=C/c1ccc(N(CC)CC)cc1
1.67	0.51	COc1ccc(C)cc1NC(=O)CNC(C)C(=O)Nc1ccc(C(C)=O)cc1 (stereo not drawn)
0.96	0.58	CC1CN(S(=O)(=O)c2ccc(CN3C(=O)c4cccnc4C3=O)cc2)c2ccccc2O1 (stereo not drawn)
0.67	-0.1	COc1cc(C(=O)NCc2ccc(-c3nc4ccccc4s3)cc2)cc(OC)c1OC
0.24	0.39	COc1ccccc1CC(=O)N1CCN(S(=O)(=O)c2cccs2)CC1
0.83	-0.21	CCC(C)Nc1nc(Cl)nc(N(C#N)CN2C(=O)c3ccccc3S2(=O)=O)n1 (stereo not drawn)
0.01	-1.6	COc1cccc(NC(=O)N2CCC(C(=O)Nc3ccc(C)cc3C)CC2)c1
0.84	-1.05	CCC(OC(=O)c1ccco1)C(=O)NCc1ccc2c(c1)OCO2 (stereo not drawn)
0.02	0.79	CC(=O)Nc1cccc(C(=O)N/N=C/c2cccc(C)n2)c1
1.34	0.07	CCC(=O)N1CCc2cc(S(=O)(=O)CCC(=O)N3CCN(c4ccc(Cl)cc4)CC3)ccc21
1.96	-0.11	CCCCn1c(SCC(=O)NC2CCCC2)nc2ccccc2c1=O
1.24	0.71	CCN(Cc1ccccc1)C(=O)C1CCN(C/C(C)=C/c2ccccc2)CC1
1.35	0.11	O=C(Nc1ccc(C(=O)N2CCCCC2)cc1)C1=CSCCO1
0.55	-0.39	CCOC(=O)c1ccc(Nc2cc3ccccc3c(=O)[nH]2)cc1
3.46	0.38	Cc1nnc(NC(=O)C2CCCN(S(=O)(=O)c3ccccc3C(F)(F)F)C2)s1 (stereo not drawn)
0.77	0.1	Cc1cc(C(=O)CSc2nc3ccccc3o2)c(C)n1CC1CCCO1 (stereo not drawn)
1.26	-0.23	CC1CCC(NC(=O)COC(=O)c2n[nH]c(=O)c3ccccc23)CC1 (stereo not drawn)
0.04	-1.29	Cc1cc(C)n(-c2nc3ccccc3c(=O)n2OCC(=O)N(C)C)n1
0.35	1.31	COC(CN(C)C(=O)c1cn(C)c2ccc(S(=O)(=O)N(C)C3CCCCC3)cc2c1=O)OC
0.59	-0.08	CCC(C)Sc1nc2c(cnn2-c2ccc(F)cc2)c(=O)[nH]1 (stereo not drawn)
0.89	0.82	CC(C)C(=O)NC(=S)N1CCc2ccccc21
0.56	-0.03	O=[N+]([O-])c1ccc(S(=O)(=O)NCCCc2ccccc2)cc1
0.01	0.04	c1ccc(Cn2c(NCc3ccncc3)nc3ccccc32)cc1
0.98	0.02	CN(C(=O)COC(=O)c1cc(S(=O)(=O)N2CCOCC2)ccc1Cl)C1CCS(=O)(=O)C1 (stereo not drawn)
0.76	-2.16	CCc1nnc(NC(=O)CSc2nnc(COc3ccc(C)cc3)n2-c2ccccc2)s1
2.34	-1.13	CCc1cc2c(-c3ccccc3)cc(=O)oc2cc1OCC(C)=O
0.73	0.33	CN(CC(=O)N1CCCCCC1)S(=O)(=O)c1ccc(Br)s1
0.71	0.06	CC1CC(NC(=O)/C(C#N)=C/c2ccc[nH]2)CC(C)(C)C1 (stereo not drawn)
0.01	-0.04	COCCNC(=O)c1onc(CSc2nc3ccccc3[nH]2)c1C(=O)NCCOC
0.38	1.21	COC(=O)c1cccc(NC(=O)CSCc2ccccc2)c1
1.08	-1.43	COc1cccc(/C=N/Nc2ccc(S(=O)(=O)O)cc2)c1O
0.18	0.9	CSCC[C@H](NC(=O)Nc1ccc(C)cc1C)C(=O)O
0.76	-0.31	COc1cccc(NC(=O)N2CCC(NC(=O)C(Cc3ccccc3F)NC(C)=O)CC2)c1 (stereo not drawn)
2.42	-1.21	C=C(C)C1CC=C(C)/C(=N/NC(=O)c2ccccc2[N+](=O)[O-])C1 (stereo not drawn)
0.38	-0.95	CCC(C)NC(=O)C1CCCN1S(=O)(=O)c1ccc(Cl)cc1 (stereo not drawn)
1.01	0.06	CN(C)/C=C/C(=O)c1cccc([N+](=O)[O-])c1
0.05	0.98	CCCCn1c(=O)[nH]c(=O)c2c1nc(-c1ccc(-c3ccccc3)cc1)n2C
0.37	-1.18	COc1ccc(S(=O)(=O)NCc2ccco2)cc1NC(=O)c1ccccc1
1.19	0.09	Cn1nc(C(=O)Nc2sc3c(c2C#N)CCCC3)ccc1=O

# (cont.)
KCNQ2 enhance	KCNQ2 enhance baseline	Molecule
2.6	0.86	CCOC(=O)c1cccc(NC(=O)CSc2nnc(-c3cccnc3)n2C)c1
0.81	0.47	Cc1ccccc1C(=O)Nc1ccnn1C1CCN(Cc2cnn(C)c2)CC1
0.6	-0.17	COc1ccc(NC2=C(C(C)=O)C(c3ccccc3)C(C(C)=O)C(C)(O)C2)cc1 (stereo not drawn)
0.68	1.25	Cn1c(=N)n(CC(=O)c2ccc(Br)s2)c2ccccc21
1.81	-0.94	O=C(CN(C(=O)CNC(=O)c1ccco1)c1ccc2c(c1)OCCO2)NC1CCCC1
0.71	0.13	O=C1OC(c2ccccc2)C2(CCCC2)C(=O)C12CCCC2 (stereo not drawn)
2.07	-1.38	Cc1ccc(OCC(=O)NCCCNC(=O)c2ccco2)cc1
0.99	0.8	O=C1OCCC1Sc1nnc(-c2ccc(F)cc2)n1Cc1ccccc1 (stereo not drawn)
0.95	1.12	CCOc1ccc(-n2ccnc2SCC(=O)Nc2nnc(CC)s2)cc1
1.03	0.28	COc1ccc(C(=O)CSc2nccn2C)c(OC)c1
0.51	1.09	O=C(c1cccc2c1-c1ccccc1C2)N1CCCCC1
0.61	-0.87	Cc1ccccc1CC(=O)Nc1sc(C(C)C)cc1C(=O)N1CCOCC1
1.04	1.14	CCOc1ccc(OCCC(=O)N(CCCOC)c2c(N)n(Cc3ccccc3)c(=O)[nH]c2=O)cc1
1.23	0.4	CCN(CC)S(=O)(=O)c1ccc(Oc2ccccc2)c(N)c1
0.34	0.09	O=C1C2C(C(=O)N1/N=C/c1ccco1)C1C=CC2C12CC2 (stereo not drawn)
1.3	1.15	COc1ccccc1C(CC(N)=O)c1ccco1 (stereo not drawn)
0.98	-1.05	O=c1c2[nH]c3cccc(Cl)c3c2ncn1Cc1ccco1
0.65	1.15	COc1ccc(/C=C/C(=O)NCc2ccc3c(c2)OCO3)cc1OC
1.11	2.17	Nc1nonc1C(=O)NCCNCc1cc(Br)ccc1OCc1ccc(F)cc1
1.04	-0.46	CCNc1nc(Oc2ccc(C(=O)OC)cc2)nc(SC)n1
1.34	2.09	Cc1ccc(SCCC(=O)Nc2cccc(N(C)S(C)(=O)=O)c2)cc1
0.49	0.77	CCCSc1nc(N)cc(=O)[nH]1
0.05	0.69	N#Cc1c(N2CCOCC2)nsc1-c1ccc(C(F)(F)F)cc1
0.14	1.57	C=CCn1c(SCC(=O)Nc2ccccc2C)nc(O)cc1=O
0.63	0.68	CC(NC(=S)Nc1c(Cl)cccc1OC(F)F)C(C)(C)C (stereo not drawn)

# Given with two lines to a compound: 6 of the compounds above.
# Results follow in this order: KCNQ2 enhance, KCNQ2 enhance baseline
Cc1ccc(OCC(=O)NCCCNC(=O)c2ccco2)cc1
→ 2.07, -1.38
CCCSc1nc(N)cc(=O)[nH]1
→ 0.49, 0.77
Cc1ccccc1CC(=O)Nc1sc(C(C)C)cc1C(=O)N1CCOCC1
→ 0.61, -0.87
O=c1c2[nH]c3cccc(Cl)c3c2ncn1Cc1ccco1
→ 0.98, -1.05
O=C1C2C(C(=O)N1/N=C/c1ccco1)C1C=CC2C12CC2 (stereo not drawn)
→ 0.34, 0.09
N#Cc1c(N2CCOCC2)nsc1-c1ccc(C(F)(F)F)cc1
→ 0.05, 0.69

# Remaining list, next part.
KCNQ2 enhance	KCNQ2 enhance baseline	Molecule
0.91	0.35	CCn1c(SCC(=O)N/N=C/c2ccncc2)nc2ccccc21
1.21	-0.31	Cc1ccc(C)c(N2CCN(S(=O)(=O)c3ccc4[nH]c(=O)ccc4c3)CC2)c1
0.23	-0.56	CCc1ccc(CNc2ccc(O)cc2)cc1
0.97	-1.36	O=C(Nc1sc2c(c1C(=O)NCc1cccnc1)CCCC2)c1ccco1
0.04	0.85	O=C(Cc1ccccc1)N/N=C/c1ccc2c(c1)OCO2
1.84	0.66	CC(C)OCCCNC(=O)c1ccc2c(c1)S(=O)(=O)c1ccccc1C2=O
0.59	0.45	CCOC(=O)N1CCN(C(=O)c2cc3c(s2)-c2c(C)cccc2OC3)CC1
0.93	1.04	COc1cc(COc2ccc3c(C)c(CC(=O)O)c(=O)oc3c2C)cc(OC)c1OC
3.09	1.8	CN(Cc1nc(-c2cnccn2)no1)C1CC(C)(C)NC(C)(C)C1
1.97	0.88	COc1ccc(S(=O)(=O)N(CC(=O)NC2CCCC2)c2ccccc2OC)cc1
0.88	-0.24	CC(=O)NC1CC2CCCC(C1)N2CC(=O)NCc1ccc(F)cc1 (stereo not drawn)
1.06	0.82	COc1ccc(N2CCCn3c2nc2c3c(=O)n(Cc3ccccc3F)c(=O)n2C)c(OC)c1
0.4	1.01	COc1cc(C)nc(N(C)S(=O)(=O)c2ccccc2Cl)n1
1.3	3.06	O=C1OC(NC(=O)c2ccccc2)C(N2CCOCC2)=C1Cl (stereo not drawn)

# Only part of the results is shown; rates above refer to the full screens.
